Assay outcomes as filed in PubChem.
Ecoli rRNA inh – reduced GFP signal of wild-type E. coli, primary screen, bacterial rRNA inhibitor project, GFP/RFP fluorescence, OD600, single point; E. coli WT GFP vs humanized-ribosome RFP mutants, 24 h; stronger effect = lower value; DMSO median 0, no signal -100; GFP signal change (wild-type ribosome), % (concentration not given with the values); actives 1.6% (n = 350,000); AID 720706, 2013;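 active means significant combined selectivity score with lowered wild-type GFP, culture density cut under 30%, mutant RFP and density less affected; inactive means any of these conditions unmet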; further: one replicate is shown; some compounds called inactive have numbers as strong as hits
FGF22 binding – binders of human FGF22 protein, primary screen, FGF22 synaptogenesis inhibitor project, biophysical, thermal shift, single point | Fibroblast growth factor 22 (Homo sapiens), Q9HCT0 | recombinant FGF22 thermal shift, SYPRO orange fluorescence; percent of sucrose octasulfate shift, DMSO zero | calls only at 9.99 µM | actives 1.5% (n = 340,000);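 active means melting point raised past a set limit in the mean and every replicate; three in four hits are not shown here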
Target sequence (Q9HCT0 whole entry, looked up): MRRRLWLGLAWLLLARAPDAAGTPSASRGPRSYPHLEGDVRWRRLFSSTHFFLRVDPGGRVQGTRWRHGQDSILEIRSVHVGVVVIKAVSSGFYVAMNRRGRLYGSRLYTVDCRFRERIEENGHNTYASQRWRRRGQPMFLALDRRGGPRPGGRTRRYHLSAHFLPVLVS
MLL AF4-AF9 inh – inhibitors of AF4 peptide binding to AF9, primary screen, biochemical, AlphaScreen, biotin-AF4 peptide, FLAG-AF9, single point. Protein AF-9 (Homo sapiens), P42568. inhibition, % at 10 µM. actives 0.47% (n = 350,000). AID 651704, 2012;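 active means every replicate reaching a set inhibition limit, whatever the replicate mean, cut at about 25% in these data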;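 further: 0% = plate neutral control median and 100% = total signal loss; the record names both 10 and 1 µM as test concentration; the first replicate is given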
Target sequence (P42568 whole entry, looked up): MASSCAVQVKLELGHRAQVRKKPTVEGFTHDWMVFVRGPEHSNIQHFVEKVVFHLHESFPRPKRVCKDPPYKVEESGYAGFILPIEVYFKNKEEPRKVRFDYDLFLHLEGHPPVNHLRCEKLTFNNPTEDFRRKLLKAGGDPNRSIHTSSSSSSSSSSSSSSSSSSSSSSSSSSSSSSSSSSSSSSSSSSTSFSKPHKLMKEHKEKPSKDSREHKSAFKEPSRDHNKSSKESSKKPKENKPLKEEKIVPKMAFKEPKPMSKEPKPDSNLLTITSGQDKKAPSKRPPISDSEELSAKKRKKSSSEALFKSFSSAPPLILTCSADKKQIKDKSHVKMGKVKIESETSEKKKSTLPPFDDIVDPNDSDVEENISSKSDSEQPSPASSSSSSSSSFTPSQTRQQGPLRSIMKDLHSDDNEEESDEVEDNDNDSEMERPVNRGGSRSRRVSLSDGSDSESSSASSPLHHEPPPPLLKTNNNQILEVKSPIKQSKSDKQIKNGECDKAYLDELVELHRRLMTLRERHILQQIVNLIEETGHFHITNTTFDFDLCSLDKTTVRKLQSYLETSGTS
Ecoli rRNA inh OD600 – recorded beside Ecoli rRNA inh, whose call it bears; OD600 change, %; measured here: OD600 growth;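 optical density of the mix in the first replicate; 0 = DMSO median and -100 = no signal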
Ecoli rRNA inh RFP – also measured in Ecoli rRNA inh; calls as there; RFP signal change, %; measured here: RFP humanized mutant strains;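 first replicate; 0 = DMSO median and -100 = no signal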
* = called active by the depositor; & = joins results of further samples. Only part of the results is shown; the hit share may differ from the screen's.

Results for COc1ccc(S(=O)(=O)N(C)C[C@@H]2Oc3ccc(NS(C)(=O)=O)cc3C(=O)N([C@@H](C)CO)C[C@@H]2C)cc1 ?
Ecoli rRNA inh: -2.9; FGF22 binding: inactive; MLL AF4-AF9 inh: -2.9; Ecoli rRNA inh OD600: -4.7; Ecoli rRNA inh RFP: 0.3

Results for COc1cccc(Cn2c(Cn3c(-c4cnccn4)nc4ccccc43)nc3ccccc32)c1 ?
Ecoli rRNA inh: 3.9; FGF22 binding: inactive; MLL AF4-AF9 inh: -4.5; Ecoli rRNA inh OD600: 16.2; Ecoli rRNA inh RFP: -2.0

What do the screens show for `Cc1ccc(-c2ccc([C@H]3[C@@H](CO)N4CCCCN(C(=O)Nc5ccccc5)C[C@H]34)cc2)cc1`?
Ecoli rRNA inh: -59.7; FGF22 binding: inactive; MLL AF4-AF9 inh: 8.5; Ecoli rRNA inh OD600: -69.9; Ecoli rRNA inh RFP: -10.6

Results for CS(=O)(=O)c1ccc(S(=O)(=O)NCC2CCN(C(=O)C(=O)c3cc4ccccc4o3)CC2)cc1 ?
Ecoli rRNA inh: 3.3; FGF22 binding: inactive; MLL AF4-AF9 inh: 0.5; Ecoli rRNA inh OD600: -1.5; Ecoli rRNA inh RFP: 5.7

Results for COc1ccc2c3c(n(C)c2c1)[C@@H](CO)N(C(=O)Nc1ccccc1F)CC31CN(C(=O)c2ccccc2)C1 ?
Ecoli rRNA inh: -6.1; FGF22 binding: inactive; MLL AF4-AF9 inh: 2.7; Ecoli rRNA inh OD600: -11.6; Ecoli rRNA inh RFP: 7.2

What do the screens show for `O=C(NCC[C@@H]1CC[C@@H](NS(=O)(=O)c2cccc(F)c2)[C@@H](CO)O1)C1CCC1`?
Ecoli rRNA inh: 0.0; FGF22 binding: inactive; MLL AF4-AF9 inh: -2.8; Ecoli rRNA inh OD600: 0.4; Ecoli rRNA inh RFP: -0.6

Results for CCNC(=O)[C@@H]1[C@@H](CO)[C@@H]2Cn3c(ccc(-c4cccnc4)c3=O)[C@@H]2N1Cc1ccc2c(c1)OCO2 ?
Ecoli rRNA inh: -1.1; FGF22 binding: inactive; MLL AF4-AF9 inh: 3.2; Ecoli rRNA inh OD600: 2.9; Ecoli rRNA inh RFP: 0.4

Results for O=C(C1CCOCC1)N1CC(=O)N2[C@H](C1)[C@H](c1ccc(C#Cc3cccc(F)c3)cc1)[C@@H]2CO ?
Ecoli rRNA inh: -0.5; FGF22 binding: inactive; MLL AF4-AF9 inh: -1.3; Ecoli rRNA inh OD600: 5.0; Ecoli rRNA inh RFP: -3.2

What do the screens show for `C[C@@H]1CCCCO[C@H](CN(C)Cc2ccncc2)[C@H](C)CN([C@@H](C)CO)C(=O)c2cc(NC(=O)NC3CCCCC3)ccc2O1`?
Ecoli rRNA inh: -3.7; FGF22 binding: inactive; MLL AF4-AF9 inh: -0.9; Ecoli rRNA inh OD600: -4.9; Ecoli rRNA inh RFP: 3.3

Results for C[C@@H]1CN([C@H](C)CO)S(=O)(=O)c2ccc(-c3ccc(C#N)cc3)cc2O[C@@H]1CN(C)Cc1cccc(F)c1 ?
Ecoli rRNA inh: -4.1; FGF22 binding: inactive; MLL AF4-AF9 inh: 7.5; Ecoli rRNA inh OD600: -5.5; Ecoli rRNA inh RFP: 4.7

A stretch from further up, as a working copy:
Results for O=C(C1CCOCC1)N1CC(=O)N2[C@H](C1)[C@H](c1ccc(C#Cc3cccc(F)c3)cc1)[C@@H]2CO ?
Ecoli rRNA inh: -0.5; FGF22 binding: inactive; MLL AF4-AF9 inh: -1.3; Ecoli rRNA inh OD600: 5.0; Ecoli rRNA inh RFP: -3.2

What do the screens show for `C[C@@H]1CCCCO[C@H](CN(C)Cc2ccncc2)[C@H](C)CN([C@@H](C)CO)C(=O)c2cc(NC(=O)NC3CCCCC3)ccc2O1`?
Ecoli rRNA inh: -3.7; FGF22 binding: inactive; MLL AF4-AF9 inh: -0.9; Ecoli rRNA inh OD600: -4.9; Ecoli rRNA inh RFP: 3.3

Results for C[C@@H]1CN([C@H](C)CO)S(=O)(=O)c2ccc(-c3ccc(C#N)cc3)cc2O[C@@H]1CN(C)Cc1cccc(F)c1 ?
Ecoli rRNA inh: -4.1; FGF22 binding: inactive; MLL AF4-AF9 inh: 7.5; Ecoli rRNA inh OD600: -5.5; Ecoli rRNA inh RFP: 4.7

Other compounds.
How did O=C(C[C@@H]1C[C@H]2c3cc(NC(=O)C4CCC4)ccc3O[C@H]2[C@H](CO)O1)NCc1ccccc1 do in these assays?
Ecoli rRNA inh: -2.8; FGF22 binding: inactive; MLL AF4-AF9 inh: -1.5; Ecoli rRNA inh OD600: -3.2; Ecoli rRNA inh RFP: 0.5

Results for C[C@@H]1CN([C@H](C)CO)C(=O)c2cc(NC(=O)Cc3ccccc3)ccc2O[C@@H](C)CCCCO[C@@H]1CN(C)C(=O)NC1CCCCC1 ?
Ecoli rRNA inh: -1.1; FGF22 binding: inactive; MLL AF4-AF9 inh: 2.6; Ecoli rRNA inh OD600: -5.3; Ecoli rRNA inh RFP: -1.8

Results for C[C@H]1CN([C@@H](C)CO)C(=O)c2cccc(NC(=O)C3CCCCC3)c2O[C@H]1CN(C)S(=O)(=O)c1ccccc1 ?
Ecoli rRNA inh: -6.5; FGF22 binding: inactive; MLL AF4-AF9 inh: -5.7; Ecoli rRNA inh OD600: -0.6; Ecoli rRNA inh RFP: -3.7

How did C[C@H]1CCCCO[C@@H](CN(C)CC2CCCCC2)[C@@H](C)CN([C@@H](C)CO)C(=O)c2cc(NS(=O)(=O)c3ccccc3)ccc2O1 do in these assays?
Ecoli rRNA inh: 0.3; FGF22 binding: inactive; MLL AF4-AF9 inh: 7.1; Ecoli rRNA inh OD600: -6.8; Ecoli rRNA inh RFP: 8.6

What do the screens show for `CCC1OC(C(C)C)Cc2[nH][nH]c(=O)c21` (centres undefined)?
Ecoli rRNA inh: 8.7; FGF22 binding: inactive; MLL AF4-AF9 inh: -3.8; Ecoli rRNA inh OD600: 16.8; Ecoli rRNA inh RFP: 6.4

What do the screens show for `COCC#Cc1ccc([C@H]2[C@@H](CO)N3CCCCN(S(=O)(=O)c4ccc(OC)cc4)C[C@@H]23)cc1`?
Ecoli rRNA inh: -1.1; FGF22 binding: inactive; MLL AF4-AF9 inh: -3.0; Ecoli rRNA inh OD600: -13.1; Ecoli rRNA inh RFP: 6.9

How did CCCC(=O)Nc1ccc2c(c1)OC[C@@H](C)N(CC1CCCC1)C[C@H](C)[C@@H](OC)CN(C)C2=O do in these assays?
Ecoli rRNA inh: -0.7; FGF22 binding: inactive; MLL AF4-AF9 inh: -0.2; Ecoli rRNA inh OD600: -10.3; Ecoli rRNA inh RFP: 2.1

How did O=C([C@@H]1[C@@H](CO)[C@@H]2Cn3c(cccc3=O)[C@@H]2N1CC1CCCC1)N1CCCCC1 do in these assays?
Ecoli rRNA inh: -1.2; FGF22 binding: inactive; MLL AF4-AF9 inh: -1.3; Ecoli rRNA inh OD600: 6.2; Ecoli rRNA inh RFP: -2.6

What do the screens show for `COc1ccc2c3c([nH]c2c1)[C@H](CO)N(Cc1ccccc1F)CC31CN(S(C)(=O)=O)C1`?
Ecoli rRNA inh: -4.7; FGF22 binding: inactive; MLL AF4-AF9 inh: 1.7; Ecoli rRNA inh OD600: 2.8; Ecoli rRNA inh RFP: 0.5

How did CNC(=O)C[C@H]1CC[C@@H]2[C@H](COC[C@@H](O)CN2C(=O)Nc2ccc(Cl)c(Cl)c2)O1 do in these assays?
Ecoli rRNA inh: -51.5; FGF22 binding: inactive; MLL AF4-AF9 inh: 0.3; Ecoli rRNA inh OD600: -70.9; Ecoli rRNA inh RFP: -14.0

What do the screens show for `COc1ccc(CN(C)C[C@@H]2OCCCC[C@H](C)Oc3ccc(NC(=O)Nc4ccc(OC)cc4)cc3C(=O)N([C@H](C)CO)C[C@@H]2C)cc1`?
Ecoli rRNA inh: -9.1; FGF22 binding: inactive; MLL AF4-AF9 inh: 2.9; Ecoli rRNA inh OD600: -38.9; Ecoli rRNA inh RFP: 35.0

How did O=C(C[C@H]1CC[C@@H]2[C@H](COC[C@@H](O)CN2C(=O)Nc2cccc(Cl)c2)O1)NCC1CCCCC1 do in these assays?
Ecoli rRNA inh: -54.8; FGF22 binding: inactive; MLL AF4-AF9 inh: 1.0; Ecoli rRNA inh OD600: -77.9; Ecoli rRNA inh RFP: -14.5

How did COc1ccc(C#Cc2ccc([C@H]3[C@H](CO)N4C(=O)CN(C(=O)C5CCOCC5)C[C@@H]34)cc2)cc1 do in these assays?
Ecoli rRNA inh: 5.4; FGF22 binding: inactive; MLL AF4-AF9 inh: -0.2; Ecoli rRNA inh OD600: 0.0; Ecoli rRNA inh RFP: 2.1

What do the screens show for `CO[C@H]1CN(C)C(=O)c2cc(NC(=O)C3CCCC3)ccc2OC[C@H](C)N(C(=O)CC2CC2)C[C@H]1C`?
Ecoli rRNA inh: 1.1; FGF22 binding: inactive; MLL AF4-AF9 inh: 0.3; Ecoli rRNA inh OD600: -2.1; Ecoli rRNA inh RFP: 0.3

Results for C[C@@H](O)C#Cc1cnc2c(c1)C(=O)N([C@@H](C)CO)C[C@H](C)[C@@H](CN(C)C(=O)CN(C)C)O2 ?
Ecoli rRNA inh: 5.5; FGF22 binding: inactive; MLL AF4-AF9 inh: -3.5; Ecoli rRNA inh OD600: 11.3; Ecoli rRNA inh RFP: -5.2

How did CNC[C@@H]1Oc2ccc(NC(=O)NC3CCCCC3)cc2CC(=O)N([C@@H](C)CO)C[C@@H]1C do in these assays?
Ecoli rRNA inh: 2.9; FGF22 binding: inactive; MLL AF4-AF9 inh: -2.5; Ecoli rRNA inh OD600: 16.1; Ecoli rRNA inh RFP: -0.3

How did C[C@@H]1CN([C@H](C)CO)C(=O)c2cc(Br)cnc2O[C@H]1CN(C)C do in these assays?
Ecoli rRNA inh: 14.2&-0.1; FGF22 binding: inactive; MLL AF4-AF9 inh: -1.5&-1.6; Ecoli rRNA inh OD600: 5.8&3.0; Ecoli rRNA inh RFP: -2.6&-1.3

What do the screens show for `CO[C@H]1CN(C)C(=O)c2cc(NS(=O)(=O)c3ccccc3)ccc2OC[C@@H](C)N(Cc2nccs2)C[C@@H]1C`?
Ecoli rRNA inh: -4.1; FGF22 binding: inactive; MLL AF4-AF9 inh: -1.5; Ecoli rRNA inh OD600: -12.2; Ecoli rRNA inh RFP: 1.5

Results for CCOC(=O)[C@]12CCC=C1N(Cc1ccccc1)C(=O)[C@H](CC(=O)NCC13CC4CC(CC(C4)C1)C3)C2 ?
Ecoli rRNA inh: -0.5; FGF22 binding: inactive; MLL AF4-AF9 inh: -0.8; Ecoli rRNA inh OD600: -7.2; Ecoli rRNA inh RFP: 0.6

What do the screens show for `C[C@H](CO)N1C[C@H](C)[C@@H](CN(C)S(C)(=O)=O)Oc2ccc(NC(=O)Nc3ccc(F)cc3)cc2C1=O`?
Ecoli rRNA inh: 1.1; FGF22 binding: inactive; MLL AF4-AF9 inh: -12.3; Ecoli rRNA inh OD600: 0.7; Ecoli rRNA inh RFP: -3.5

What do the screens show for `N#C[C@@H]1[C@H](c2ccccc2C2=CCCCC2)[C@@H](CO)N1C(=O)c1cccc(F)c1`?
Ecoli rRNA inh: -36.7; FGF22 binding: inactive; MLL AF4-AF9 inh: -0.5; Ecoli rRNA inh OD600: -67.3; Ecoli rRNA inh RFP: -0.5

How did Cc1noc(C)c1NC(=O)N[C@@H]1C=C[C@H](CC(=O)Nc2ccccc2)O[C@H]1CO do in these assays?
Ecoli rRNA inh: 1.4; FGF22 binding: inactive; MLL AF4-AF9 inh: -0.4; Ecoli rRNA inh OD600: 1.3; Ecoli rRNA inh RFP: 0.4

Results for CCCN(C)C[C@@H]1OCCCC[C@H](C)Oc2ccc(NC(=O)CCCN(C)C)cc2C(=O)N([C@H](C)CO)C[C@@H]1C ?
Ecoli rRNA inh: -1.9; FGF22 binding: inactive; MLL AF4-AF9 inh: 4.6; Ecoli rRNA inh OD600: 5.8; Ecoli rRNA inh RFP: -2.7

How did C[C@H]1CN([C@@H](C)CO)S(=O)(=O)c2ccc(C#Cc3ccccc3)cc2O[C@H]1CN(C)C(=O)CN(C)C do in these assays?
Ecoli rRNA inh: -1.3; FGF22 binding: inactive; MLL AF4-AF9 inh: 17.9; Ecoli rRNA inh OD600: 0.3; Ecoli rRNA inh RFP: 13.2

What do the screens show for `Cc1nnc(SCC(=O)Nc2cccc(S(=O)(=O)N3CCCC3)c2)n1C1CC1`?
Ecoli rRNA inh: 5.3; FGF22 binding: inactive; MLL AF4-AF9 inh: -2.1; Ecoli rRNA inh OD600: 19.1; Ecoli rRNA inh RFP: -0.7

What do the screens show for `C[C@H](CO)N1C[C@H](C)[C@H](CN(C)Cc2ccc(-c3ccccc3)cc2)Oc2c(NC(=O)Nc3ccccc3)cccc2C1=O`?
Ecoli rRNA inh: 0.8; FGF22 binding: inactive; MLL AF4-AF9 inh: 2.5; Ecoli rRNA inh OD600: -0.4; Ecoli rRNA inh RFP: 3.3

How did COc1ccccc1N1CCN(c2ncnc3n[nH]c(Br)c23)CC1 do in these assays?
Ecoli rRNA inh: -1.5; FGF22 binding: inactive; MLL AF4-AF9 inh: -3.4; Ecoli rRNA inh OD600: -9.3; Ecoli rRNA inh RFP: -7.5
